VDR inh = blocks the human vitamin D receptor. P11473. VDR-SRC2-3 peptide fluorescence polarization, 2 h. Potency, µM, for the others: max response, negative = inhibition, actives largely listed as inhibitors. 400,000 compounds, 0.93% hits; active means well fitted inhibition curve with a large enough effect; inconclusive means small, poorly fitted or top-dose-only effect, or another doubt; inactive means no such curve, though single readings can be large or run the other way; further: series mostly up to about 120 µM
Target sequence (P11473 whole entry, looked up): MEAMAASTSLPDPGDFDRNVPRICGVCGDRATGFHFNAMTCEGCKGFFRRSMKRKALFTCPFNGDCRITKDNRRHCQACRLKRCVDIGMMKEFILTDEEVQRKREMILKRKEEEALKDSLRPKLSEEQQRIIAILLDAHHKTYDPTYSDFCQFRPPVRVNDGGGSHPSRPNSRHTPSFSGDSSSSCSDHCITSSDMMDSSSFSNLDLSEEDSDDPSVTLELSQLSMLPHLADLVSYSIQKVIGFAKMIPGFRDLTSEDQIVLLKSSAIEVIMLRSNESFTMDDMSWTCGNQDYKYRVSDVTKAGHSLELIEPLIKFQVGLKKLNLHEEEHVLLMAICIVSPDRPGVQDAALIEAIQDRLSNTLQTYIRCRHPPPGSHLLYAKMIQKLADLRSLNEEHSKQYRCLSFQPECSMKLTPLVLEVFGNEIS
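Fluorescence polarization assay measuring small-molecule disruption of VDR binding to the coregulator peptide SRC2-3. Compounds were pin-transferred (23 nl) into the reagent mix and incubated 2 h at room temperature before reading.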
Starred values were filed as active, the others as inactive; & = joins results of further samples. On the % scale 0 is the no-effect control and ±100 the full control effect; potency means the concentration at half of the fitted maximal effect. These rows are one share of the data; the hit share may differ from the screen's.

C#CCN1C(=O)S/C(=C/c2cc(C)n(CC)c2C)C1=O was read as VDR inh 0.5%.
Screening CCC(=O)Nc1ccc2c(c1)ncn2-c1ccc(OC)cc1 returned VDR inh 11.0%.
O=C(NCc1cccs1)c1cnn2cccnc12 was read as VDR inh -1.9%.
For Cc1cccc(/C=N/NC(=O)Cn2nnnc2N)n1 the results were VDR inh 4.3%.
Screening O=C(Nc1ccc(S(=O)(=O)N2CCCCC2)cc1)C1CCCO1 (centres undefined) returned VDR inh -20.4%.
COc1ccc(C(=O)Nn2c(C)nnc2-n2nc(C)cc2C)cc1OC was read as VDR inh -7.1%.
For O=C(c1cccc(Cl)c1)N1CCC(c2nc3c(nnn3Cc3ccc(F)cc3F)c(=O)[nH]2)CC1 the results were VDR inh 7.1%.
For O=C(Nc1nccs1)C1C2/C=C\CCCCC21 (centres undefined) the results were VDR inh -18.2%.
`O=C(NCCNc1ccc([N+](=O)[O-])cc1)c1cccc(Br)c1` gave VDR inh -20.2%.
For CCCc1nc2c(=O)n(C)c(=O)[nH]c2n1CCC the results were VDR inh 2.1%.
Screening O=C(NCCc1cccc(F)c1)[C@@H]1CSC2c3ccccc3C(=O)N21 (some centres undefined) returned VDR inh -15.7%.
Screening CCN(C(=O)Cn1cc(S(=O)(=O)Cc2ccccc2Cl)c2ccccc21)c1ccccc1 returned VDR inh 17.0%.
For C[C@@H]1CC[C@]2(O[C@H](CCO)C[C@@H](O)[C@@H]2O)O1 the results were VDR inh -10.0%.
Screening CCOC(=O)c1ccc(N2C(=O)c3n[nH]c(-c4ccco4)c3C2c2cccc(O)c2)cc1 (centres undefined) returned VDR inh -13.7%.
`CCOC(=O)CSc1nc(C)c2cc(C)c(C)cc2n1` gave VDR inh -8.4%.
Screening OCC1(CO)COC2(CCCC2)N1 returned VDR inh 0.9%.
Screening Nc1sc2c(c1C(=O)c1ccccc1)CCCC2 returned VDR inh inconclusive.
For O=C(NCCc1csc(-c2ccccc2)n1)c1c(F)cccc1Cl the results were VDR inh -0.4%.
`Cc1nc(SC2CC(=O)N(c3ccccc3)C2=O)n[nH]1` (centres undefined) gave VDR inh -0.5%.
OC1(c2cccc(C(F)(F)F)c2)CCN(Cc2nnnn2CCc2ccccc2)CC1 was read as VDR inh 1.1%.
For OC(CN1CCN(C(c2ccccc2)c2ccccc2)CC1)c1ccccc1 (centres undefined) the results were VDR inh 19.5%.
CCCOc1ccc(NC(=O)CC2C(=O)Nc3ccccc3N2CC(=O)N2CCCC2)cc1 (centres undefined) was read as VDR inh 10.7%.
`COc1cccc(N2CCN(S(=O)(=O)c3ccc4c(c3)oc(=O)n4C)CC2)c1` gave VDR inh 2.5%.
`O=S(=O)(NN1CCOCC1)c1ccc(Cl)s1` gave VDR inh 9.3%.
CCC1([N+](=O)[O-])COC(C=Cc2ccccc2)OC1 (centres undefined) was read as VDR inh -3.4%.
Screening O=C(CN1C(=O)C2CCCCC2C1=O)Nc1cc([N+](=O)[O-])ccc1F (centres undefined) returned VDR inh 2.6%.
For O=C(CCCSc1nc2ccccc2c(=O)[nH]1)c1ccccc1 the results were VDR inh -23.1%.
For Cc1ccc2nc(SCC(=O)N/N=C/c3ccco3)cc(C)c2c1 the results were VDR inh 3.3%.
O=C(NNC(=O)C1C2C=CC(C2)C1C(=O)O)c1cc(Cl)ccc1O (centres undefined) was read as VDR inh -12.4%.
For CS(=O)(=O)N(CC(=O)N1CCCCC1)C1CCCCC1 the results were VDR inh 16.0%.
Screening Cc1oc(C)c(C(=O)O)c1C(=O)O returned VDR inh 3.8%.
For COc1ccc(/C=N/NC(=O)c2ccc(OC)c(OC)c2)cc1COc1c(F)c(F)c(F)c(F)c1F the results were VDR inh 17.4%.
`CSc1nc(SCC(=O)O)c2sc3nc(-c4ccccc4)c4c(c3c2n1)CCC4` gave VDR inh -11.5%.
O=C(COC(=O)COc1cccc(C(F)(F)F)c1)Nc1ccc(N2CCOCC2)cc1 was read as VDR inh -4.8%.
`COc1cc(/C=C/C(=O)OCN2C(=O)c3ccccc3C2=O)ccc1OC(F)F` gave VDR inh -9.7%.
For COc1cc(NS(C)(=O)=O)ccc1Cc1c2ccccc2nc2ccccc12 the results were VDR inh 12.8%.
For CCOC(=O)C(CCOc1cccc(CC)c1)C(=O)OCC the results were VDR inh -4.6%.
For COc1cc(NC(=O)CNC(=O)Cn2ccc3ccccc3c2=O)cc(OC)c1OC the results were VDR inh 17.8%&-2.0%.
`Cc1ccccc1OCCSc1nc2ccc(NC(=O)c3ccco3)cc2s1` gave VDR inh 3.5%.
CCOC(=O)c1ccc(S(=O)(=O)Nc2cc(S(=O)(=O)N3CCOCC3)ccc2O)cc1 was read as VDR inh 44.7µM*.
Cc1cc(NC(=O)c2cccs2)n(-c2nc3ccccc3[nH]2)n1 was read as VDR inh 0.5%.
Screening CC1CN(C(=S)SCC(=O)c2ccc([N+](=O)[O-])cc2)CC(C)O1 (centres undefined) returned VDR inh 11.8%.
Screening COc1cccc(O)c1CN1CCCC(C(=O)c2cccc(C(F)(F)F)c2)C1 (centres undefined) returned VDR inh -6.3%.
Cc1ccc2cc3cc(C(=O)N4CCN(Cc5ccccc5)CC4)sc3nc2c1 was read as VDR inh 19.6%.
Screening COc1ccc(OCC(O)CNCCOc2ccccc2OC)c(C(C)(C)C)c1 (centres undefined) returned VDR inh -15.1%.
`CCOc1ccc(NC(=O)NC(C)CC)cc1` (centres undefined) gave VDR inh -16.9%.
For CC1CCC2C(=O)N(c3ccc(S(=O)(=O)c4ccccc4)cc3)C(=O)C2C1 (centres undefined) the results were VDR inh -16.7%.
For O=Cc1ccc(Oc2ncccn2)cc1 the results were VDR inh -9.9%.
Cc1cc(C)c(NC(=O)CN)c(C)c1 was read as VDR inh 7.8%.
`Cn1nc(C(=O)Nc2cccc(S(=O)(=O)N3CCOCC3)c2)c2ccccc2c1=O` gave VDR inh -4.2%.

The closing two entries of the part before come first, to join the parts:
Cc1cc(C)c(NC(=O)CN)c(C)c1 was read as VDR inh 7.8%.
`Cn1nc(C(=O)Nc2cccc(S(=O)(=O)N3CCOCC3)c2)c2ccccc2c1=O` gave VDR inh -4.2%.
`COc1ccccc1C(=O)NCC(=O)NC1CCCc2ccccc21` (centres undefined) gave VDR inh 1.2%.
Screening CCC12CN3CC(CC)(CN(C1)C3c1cccc(OC)c1O)C2=O (centres undefined) returned VDR inh 4.2%.
`Cc1nnc2c(NC3CCCC3)nc3ccccc3n12` gave VDR inh -19.7%.
Screening CCOC(=O)C1CCCN(CCC(=O)Nc2cccc(C)c2)C1 (centres undefined) returned VDR inh 20.6%&-15.1%.
`COc1ccccc1C(=O)N=Nc1c(O)[nH]c2ccc([N+](=O)[O-])cc12` gave VDR inh -4.2%.
`CC1CCN(C(=O)c2ccc(NS(=O)(=O)c3ccccc3)cc2)CC1` gave VDR inh 6.7%.
For C=CCn1c(SCC(=O)c2ccccc2)nnc1-c1cc2ccccc2o1 the results were VDR inh 4.7%.
`CCOC(=O)c1c(N)sc2c1CCC1C(=O)N(C3CCCCC3)C(=O)C21` (centres undefined) gave VDR inh -9.2%.
`Cc1ccsc1/C=N/n1c(COc2ccccc2)n[nH]c1=S` gave VDR inh -15.3%.
For CCCCCCCCOC(=O)c1ccc(N)cc1 the results were VDR inh 14.0%.
CC(C)(C)n1nc2c(c1NC(=O)Cc1cccc3ccccc13)CS(=O)(=O)C2 was read as VDR inh -3.0%.
Screening Cc1cccc(NC(=S)NC(=O)/C=C/c2ccco2)n1 returned VDR inh 5.1%.
For N#CCc1nn2c(-c3ccccc3)ccnc2c1C#N the results were VDR inh 25.3%.
Screening COc1ccccc1CCNC(=O)c1c(C)nn(CC(C)C)c1Cl returned VDR inh 5.4%.
For COc1cccc(-c2cc(C(=O)N/N=C/c3ccc(OC)c(COC(C)=O)c3)c3ccccc3n2)c1 the results were VDR inh -4.1%.
O=C(Cn1nc(C(F)(F)F)c2c1CCCC2)NCCN1CCOCC1 was read as VDR inh -21.9%.
For O=C(NC1CCC(CC2CCC(NC(=O)C(Cl)Cl)CC2)CC1)C(Cl)Cl (centres undefined) the results were VDR inh -3.3%.
Screening CN(CC(=O)Nc1cccc(F)c1)C(=O)CCN1C(=O)C2CC=CCC2C1=O (centres undefined) returned VDR inh -0.7%.
Screening CCc1ccc2oc(-c3cccc(NC(=O)c4ccc(N5CCC(C)CC5)c([N+](=O)[O-])c4)c3)nc2c1 returned VDR inh -20.6%.
For CCN1CCC(n2nccc2NC(=O)c2ccccc2Cl)CC1 the results were VDR inh 0.6%.
For Oc1ccc(C[C@H]2CNC(=S)N2CCc2cc(C(F)(F)F)cc(C(F)(F)F)c2)cc1 the results were VDR inh -13.1%.
For CC(=O)Nc1cccc(C(=O)Nc2nc(C)cs2)c1 the results were VDR inh -20.9%.
`Cc1[nH][nH]c(=O)c1C(c1ccc(-c2ccc(Cl)c(C(=O)O)c2)o1)c1c(C)[nH][nH]c1=O` gave VDR inh 39.8µM*.
Screening COCCCN1C(=O)C(=O)/C(=C(/O)c2ccc(S(=O)(=O)N3CCOCC3)cc2)C1c1ccc(OC)cc1 (centres undefined) returned VDR inh 12.8%.
Screening CC1(C)CCC[C@@](C)([C@H]2CC[C@]3(C)[C@@H]2[C@H](O)C[C@@H]2[C@@]4(C)CC[C@H](O)C(C)(C)[C@@H]4CC[C@]23C)O1 returned VDR inh 8.8%.
For CCN(CC)Cc1csc2ccc(Br)cc12 the results were VDR inh -0.5%.
Screening CN1CCN(c2c(F)cc3c(=O)c(C(=O)O)cn(CCF)c3c2F)CC1 returned VDR inh -4.7%.
Screening Cc1cc(C)cc(NC(=O)NCc2nnc(SCc3ccccc3)n2C)c1 returned VDR inh inconclusive.
Screening N#CC1=C(N)SC(N)=C(C#N)C1c1ccc([N+](=O)[O-])cc1 returned VDR inh 79.4µM*.
CC1=C(C(=O)Nc2cccnc2)C(c2cccc(F)c2)n2nc(SCc3ccccc3F)nc2N1 (centres undefined) was read as VDR inh -14.8%.
CC1CCC(NC(=O)c2ccc(-n3cncn3)c([N+](=O)[O-])c2)CC1 (centres undefined) was read as VDR inh 6.7%.
`Cc1nc(Nc2ccccc2Br)c2nnn(Cc3ccccc3)c2n1` gave VDR inh -15.5%.
COc1cc(NC(=O)CSc2nncn2C)cc(OC)c1OC was read as VDR inh -6.8%.
`COc1ccc(COc2cc(-c3cccc(OC)c3)nc3ccc(NC(=O)c4ccc(OC)cc4)cc23)cc1` gave VDR inh 5.8%&-1.5%.
For CCCNS(=O)(=O)c1cccc(C(=O)OCc2cc(=O)oc3cc(OC)ccc23)c1 the results were VDR inh 11.2%.
COC(=O)N1CCC2(CC1)CCN(c1ccccn1)CC2 was read as VDR inh -2.0%.
`CNC(=S)Nc1ccc(C)c(NC(=S)NC)c1` gave VDR inh inconclusive.
CC1(C)SC2C(C(=O)O)N=C(Cc3ccccc3)N2C1C(=O)O (centres undefined) was read as VDR inh 4.9%.
Screening O=C(Nc1nc2ccccc2[nH]1)C1CC1 returned VDR inh -19.7%.
`Cc1ccc(S(=O)(=O)Nc2ccc3cc([N+](=O)[O-])ccc3c2[N+](=O)[O-])cc1` gave VDR inh 20.4%.
For COCCCNC(=O)C1=CCN(S(=O)(=O)c2ccc(OC)cc2)CC1 the results were VDR inh -12.5%.
`COc1ccc(CCNC(=O)Cn2nnc(-c3ccc(Cl)cc3)n2)cc1OC` gave VDR inh 6.5%.
Screening COc1ccc(N2CCN(C(=O)CCS(=O)(=O)c3cc(Br)cc4c3N(C(=O)C3CC3)CC4)CC2)cc1 returned VDR inh -25.5%.
`Cc1cc(C)nc(NC(=O)c2cc(-c3ccc(C)s3)nc3ccccc23)c1` gave VDR inh -8.4%.
CCc1ccc(OC(=O)CSc2nnc(-c3ccc(OC)c(OC)c3)o2)cc1 was read as VDR inh 5.5%.
For CCCCNc1nnc(SCC(=O)c2c[nH]c3ccccc23)s1 the results were VDR inh -33.5%.
Screening CC(=O)Nc1ccc2nc(NC(=O)CN3CCOCC3)sc2c1 returned VDR inh -9.3%.
`COc1ccc(CCNC(=O)CSc2ccccc2)cc1OC` gave VDR inh -5.7%.
CCCCCCOC(=O)C(C#N)c1nc2ccccc2nc1N1CCCCC1 (centres undefined) was read as VDR inh -4.2%.
For COc1ccc(-c2cc3nc(C)c(CCC(=O)N4CCN(c5cc(C)ccc5C)CC4)c(C)n3n2)c(OC)c1 the results were VDR inh 2.1%.
CCc1nc(N)nc2c1C(=O)CC(C)(C)C2 was read as VDR inh 26.9%.

Filtered by structure, those above containing an aryl thioether with sulfur outside any ring (13)
`CCOC(=O)CSc1nc(C)c2cc(C)c(C)cc2n1` gave VDR inh -8.4%.
`Cc1nc(SC2CC(=O)N(c3ccccc3)C2=O)n[nH]1` (centres undefined) gave VDR inh -0.5%.
For O=C(CCCSc1nc2ccccc2c(=O)[nH]1)c1ccccc1 the results were VDR inh -23.1%.
For Cc1ccc2nc(SCC(=O)N/N=C/c3ccco3)cc(C)c2c1 the results were VDR inh 3.3%.
`CSc1nc(SCC(=O)O)c2sc3nc(-c4ccccc4)c4c(c3c2n1)CCC4` gave VDR inh -11.5%.
`Cc1ccccc1OCCSc1nc2ccc(NC(=O)c3ccco3)cc2s1` gave VDR inh 3.5%.
For C=CCn1c(SCC(=O)c2ccccc2)nnc1-c1cc2ccccc2o1 the results were VDR inh 4.7%.
Screening Cc1cc(C)cc(NC(=O)NCc2nnc(SCc3ccccc3)n2C)c1 returned VDR inh inconclusive.
CC1=C(C(=O)Nc2cccnc2)C(c2cccc(F)c2)n2nc(SCc3ccccc3F)nc2N1 (centres undefined) was read as VDR inh -14.8%.
COc1cc(NC(=O)CSc2nncn2C)cc(OC)c1OC was read as VDR inh -6.8%.
CCc1ccc(OC(=O)CSc2nnc(-c3ccc(OC)c(OC)c3)o2)cc1 was read as VDR inh 5.5%.
For CCCCNc1nnc(SCC(=O)c2c[nH]c3ccccc23)s1 the results were VDR inh -33.5%.
`COc1ccc(CCNC(=O)CSc2ccccc2)cc1OC` gave VDR inh -5.7%.

Compound activity as filed in PubChem.
